Screens as filed in PubChem.
CDC25B CDK2 inh – human CDC25B-CDK2/CyclinA binding inhibition | P30305+P24941 | z-score (concentration not given with the values) | AID 1259370 | HTRF CDC25B-CDK2/CyclinA binding, anti-His/anti-Flag; stronger effect = higher value | actives 0.72% (n = 94,000);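 further: score is relative to mean and SD of negative controls; strong numbers were not always called active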
TAR Tat displ – HIV-1 TAR-Tat binding disruption. HIV-1 TAR RNA, Tat peptide displacement FRET; stronger effect = higher value. z-score (no concentration beside the values). actives 0.6% (n = 100,000). AID 1259389;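 further: score is relative to mean and SD of negative controls; some compounds called inactive have numbers as strong as hits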
Numbers without * were called inactive; · = no result given; & = joins results of further samples.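 How the source made its calls: active means z-score from 3 up in half or more of its runs; inactive means the rest.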

SMILES	CDC25B CDK2 inh	TAR Tat displ
CCN(CC)S(=O)(=O)c1c(C)nn(C(=O)c2cccs2)c1C	·	-1.02
COc1cccc(-n2c3c(c(SCc4ccccc4)nc2=O)CCC3)c1	-1.81	1.01
O=C(CN1C(=O)c2cccc3cccc(c23)C1=O)N1CCOCC1	-1.63	-0.08
Cc1ccnc(NC(c2ccc(N(C)C)cc2)c2ccc3ccc(C)nc3c2O)c1 (stereo not drawn)	-0.25	2.25
CCOc1cccc(C(Nc2ccccn2)c2ccc3ccc(C)nc3c2O)c1 (stereo not drawn)	-1.41	-0.5
COc1ccc2c(c1)c1nc(SCc3cc(=O)n4ccccc4n3)n(C)c(=O)c1n2C	-0.67	2.53
COc1ccccc1/C=C/c1nc2cc(Cl)ccc2c(=O)o1	0.17	2.21
COc1cccc(-c2nc(SCc3cc(=O)n4nc(C(C)C)sc4n3)n[nH]2)c1	·	-0.38
S=C1NC2=C(C(c3ccc(Br)cc3)N1)N1CCC2CC1 (stereo not drawn)	0.62	·
O=C(Cn1cnc(S(=O)(=O)N2CCOCC2)c1)Nc1ccc(Cl)cn1	·	0.27
CCSc1ncc(Cl)c(C(=O)Nc2sc3c(c2C(=O)NCCOC)CCCC3)n1	-1.47	2.77
Clc1ccc(OCc2nn3cnnc3s2)cc1	-1.74	0.33
COc1cc(C2Nc3cccc4cccc(c34)N2)cc(OC)c1OC	-1.38	·
C=CCNc1ncnc2c1c(-c1ccccc1)cn2-c1ccccc1C	-2.49	0.98
CC1=C(C(=O)O)N2C(=O)C(NC(=O)c3nn(C)c(C)c3Cl)C2SC1 (stereo not drawn)	-2.43	0.38
CC1=CC(C)(C)N(C(=O)CSc2nnc(-c3ccccc3)o2)c2ccccc21	-0.24	0
CCN(CC)c1nc(N)c([N+](=O)[O-])c(Nc2cccc(F)c2)n1	·	1.25
Cn1c(=O)oc2cc(S(=O)(=O)N3CCC(C(=O)NC4CCCC4)CC3)ccc21	-1.06	1.81
C=C(C)Cn1c(NCCOC)nc2c1c(=O)[nH]c(=O)n2C	-0.44	·
CN(C)c1cc(NC(=O)CN2CCOCC2)c2ccccc2n1	-0.29	0.38
Cc1cc(C(=O)C(=O)Nc2ccc(Br)cc2)c(C)n1-c1ccc(F)cc1	-2.5	0.5
CCOC(=O)Cn1c(=O)c2c(nc3n2CCN3c2ccc(F)cc2)n(C)c1=O	·	2.13
COc1ccc(-c2cn3c(n2)sc2cc(C(=O)NC4CCCC4)ccc23)cc1	·	1.25
Cn1cc(S(=O)(=O)N2CCCC2)cc1C(=O)NCCN1CCCC1	·	1
Cc1cc(C)nc(N2CCC(NC(=O)NC3CCCCC3)CC2)n1	-1.33	2.2
CCOCCCNC(=O)CCc1nnc2ccc(N3CCCC3)nn12	·	-0.52
CC1CCCCN1S(=O)(=O)c1ccc(CN2C(=O)c3cccnc3C2=O)cc1 (stereo not drawn)	·	0.22
N#Cc1c[nH]n2c(NC3CCCCC3)c(-c3cccs3)nc12	-0.81	-0.37
Cc1ccccc1-c1noc2ncnc(NCc3cccc(Cl)c3)c12	·	0.38
Cc1cc2c(cc1S(=O)(=O)CCC(=O)N1CC(C)CC(C)C1)OCC(=O)N2 (stereo not drawn)	·	0.7
Cc1nnc(NC(=O)C(=O)c2cc(C)n(-c3ccccc3)c2C)s1	-0.08	16.6
CCN1CCc2c(sc(-n3cccc3)c2C(C)NC(=O)Nc2ccccc2Br)C1 (stereo not drawn)	·	-7.62
NS(=O)(=O)c1ccc(NC(=O)c2sc3cc(Cl)ccc3c2Cl)cc1	-5.3	·
Cc1c(C(=O)NC2CC2)sc2nc3n(c(=O)c12)CCCCC3	·	1.19
O=C(NCc1c(-c2ccccc2)nc2n1CCS2)C1c2ccccc2Oc2ccccc21	·	1.74
Clc1ccc(-c2nc(NCc3cccs3)c3ccccc3n2)cc1	·	0.57
CN1CCN(c2ccc3nnc(CCC(=O)N4CCC(Cc5ccccc5)CC4)n3n2)CC1	·	0.57
CC(=O)N1c2ccc(S(=O)(=O)N3CCCC3)cc2CC1C(=O)Nc1cc(F)ccc1F (stereo not drawn)	·	1
O=C(CSc1nc2ccccc2c(=O)n1Cc1ccco1)N1CCCC1	0.42	2.14
COc1ccc(OC)c2[nH]c(=O)c(CCNC(=O)CCC3CCCC3)cc12	-1	·
c1ccc2c(c1)nc(N1CCOCC1)c1nnnn12	-0.83	-3.54
O=C(NC1CCCC1)c1cc2c(ccc3ccccc32)o1	-0.52	-1.12
Cc1cc(Nc2ccccc2Cl)n2nc(-c3ccco3)nc2n1	·	-0.63
CC(=O)c1oc2nc3c(c(-c4ccc(Cl)cc4)c2c1N)CCc1ccccc1-3	-0.77	·
COc1cc(NC(=O)Nc2ccc(Cl)cc2)c(-n2c(C)ccc2C)cc1OC	-0.5	·

Another view of some results above.
Structure,CDC25B CDK2 inh,TAR Tat displ
NS(=O)(=O)c1ccc(NC(=O)c2sc3cc(Cl)ccc3c2Cl)cc1,-5.3,·
Cc1c(C(=O)NC2CC2)sc2nc3n(c(=O)c12)CCCCC3,·,1.19
O=C(NCc1c(-c2ccccc2)nc2n1CCS2)C1c2ccccc2Oc2ccccc21,·,1.74
Clc1ccc(-c2nc(NCc3cccs3)c3ccccc3n2)cc1,·,0.57
CN1CCN(c2ccc3nnc(CCC(=O)N4CCC(Cc5ccccc5)CC4)n3n2)CC1,·,0.57

Next compounds.
SMILES	CDC25B CDK2 inh	TAR Tat displ
Cc1ccc(C2C(=O)N(C3CCCCCC3)CC(=O)N2Cc2ccccc2)cc1 (stereo not drawn)	-1.65	·
CNC(=O)Cn1cc2c(n1)CCCC2	-2.17	·
CSc1cc(-c2ccc(Cl)cc2)nc(-c2ccco2)c1	0.79	·
CCCCCC(=O)Nc1nc2nc(C)cc(=O)n2[nH]1	-0.04	1.43
CCOc1ccc(C2Oc3ccc(Cl)cc3C3CC(c4ccco4)=NN32)cc1 (stereo not drawn)	-2.14	-4.41
Cc1ccc(CSc2nc3c(c(=O)[nH]2)CCC3)cc1	-0.91	0.43
O=C(Nc1ccc2c(c1)OCCO2)NC(c1ccc(Cl)cc1)c1nnc(-c2ccccc2)o1 (stereo not drawn)	·	1.11
O=C(NCc1ccco1)c1cn(-c2ccc(F)cc2)nn1	-1.74	1.19
CN(C(=O)c1noc2c1CCCCC2)c1ccccc1F	·	0.31
CCOc1ccc(-n2c(N)c(C(N)=O)sc2=S)cc1	·	1.26
Cc1noc(-c2ccc(C)c(S(=O)(=O)Nc3ccc(Cl)cc3)c2)n1	·	1.16
CC1(C(=O)NC2CCCCC2)Cn2c(cc3occc32)C(=O)N1c1ccc(Cl)cc1 (stereo not drawn)	·	1.15
O=c1[nH]c(CN2CCCCC2)nc2ccccc12	-1.9	·
CC1CC(=O)NN=C1c1cccs1 (stereo not drawn)	-0.24	·
O=c1c(S(=O)(=O)c2ccccc2)cn(Cc2ccc(F)cc2)c2cc(N3CCCC3)c(F)cc12	·	0.97

Pulled by compound from the entries so far (six):
SMILES	CDC25B CDK2 inh	TAR Tat displ
S=C1NC2=C(C(c3ccc(Br)cc3)N1)N1CCC2CC1 (stereo not drawn)	0.62	·
NS(=O)(=O)c1ccc(NC(=O)c2sc3cc(Cl)ccc3c2Cl)cc1	-5.3	·
COc1ccccc1/C=C/c1nc2cc(Cl)ccc2c(=O)o1	0.17	2.21
Clc1ccc(-c2nc(NCc3cccs3)c3ccccc3n2)cc1	·	0.57
CCOc1ccc(-n2c(N)c(C(N)=O)sc2=S)cc1	·	1.26
Cc1nnc(NC(=O)C(=O)c2cc(C)n(-c3ccccc3)c2C)s1	-0.08	16.6

Continuation:
SMILES	CDC25B CDK2 inh	TAR Tat displ
Cn1cnc(S(=O)(=O)N2CCCC2)c1	·	1.34
Cc1nn(-c2ccccc2)nc1C(=O)NCC1CC1	0.02	·
CC(CCC(C)OC(=O)c1ccccc1C(=O)O)OC(=O)c1ccccc1C(=O)O (stereo not drawn)	0.65	·
Clc1ccc(C2C=C(c3cccnc3)Nc3nc4ccccc4n32)cc1 (stereo not drawn)	-2.73	·
CCCOc1ccccc1C1C(C(=O)OCC)=C(C)Nc2nnnn21 (stereo not drawn)	1.98	0.88
CCn1nc(C)c(CNC(=O)Nc2ccc3c(c2)OCO3)c1C	·	0.25
COC(=O)c1cnc(Sc2ccccc2NC(=O)c2cccs2)c([N+](=O)[O-])c1	-4.02	·
Cc1ccc(-c2nc(CSCC(=O)NCc3ccc4c(c3)OCO4)c(C)o2)cc1	-1.09	·
Cc1cc(C)nc(NS(=O)(=O)c2ccc(NS(=O)(=O)c3ccc(C)c(Cl)c3)cc2)n1	-0.77	·
O=C(NCc1cccn1Cc1ccc(F)cc1)Nc1cc(F)ccc1F	·	-0.17
COc1ccc(-c2nc3n(n2)C(=O)CCS3)cc1	·	1.26
COC(=O)c1sccc1NC(=O)NC1CCCCC1	0.96	0.91
COc1cc(OC)cc(-c2n[nH]c(=S)n2-c2ccc(F)cc2)c1	-1.39	·
CSc1cccc(NC(=O)NCCn2cnc3cc(C(=O)NC4CCCC4)ccc32)c1	·	2.15
C=CCOC(=O)C1C(c2ccc(F)cc2)c2c([nH][nH]c2=O)CC1(C)O (stereo not drawn)	1.01	0.92
CCCCCOC(=O)C1=C(C)NC2=C(C(=O)CC(C)(C)C2)C1c1ccc(OC)cc1OC (stereo not drawn)	-0.34	0.55
CC1CCC(NC(=O)C2CCC(CNS(=O)(=O)c3ccc4c(c3)C(C)(C)C(=O)N4C)CC2)CC1 (stereo not drawn)	·	1.18
CCOc1ccccc1-n1c(N)c(C(N)=O)sc1=S	·	2.06
COc1cc(C2Nc3ccccc3-n3c(-c4ccccc4)c4c(=O)n(C)c(=O)n(C)c4c32)ccc1O (stereo not drawn)	-0.95	1.61
O=C(NNC(=O)c1cccs1)c1ccc2ncccc2c1	-1.02	·
CCSc1nn2c(=O)cc(COc3cccc(C)c3C)nc2s1	-1.27	-2.04
O=C(CN1C(=O)CCSc2ccc(S(=O)(=O)N3CCCC3)cc21)N1CCCc2ccccc21	·	1.29
COc1ccc(C(=O)Nc2nnc3n2CCS3)c(OC)c1	·	0.56
Cn1c(=O)c2c(nc(Cl)n2CC(O)CO)n(C)c1=O (stereo not drawn)	-1.79	1.74
CCCSc1nc2c(c(=O)[nH]1)C(c1ccncc1)C(C(=O)OC(C)C)=C(C)N2 (stereo not drawn)	-1.83	0.7
c1ccc(-c2noc(N3CCOCC3)n2)cc1	·	0.41
CNC(=O)c1c(NC(=O)c2ccc3c(c2)CCCC3)sc2c1CCC2	·	0.17
Clc1ccc(OCCSc2nnc(-c3ccc4c(c3)OCO4)o2)cc1	-6.03	1.42
Cc1ccc(C)c(S(=O)(=O)c2cn(C)c3cc(N4CCCC(C)C4)c(F)cc3c2=O)c1 (stereo not drawn)	·	-0.28
Cc1ccccc1CSc1nn2c(=O)c(C)nnc2s1	0.82	2.33
O=C(O)C1CC(=O)N(C2CCN(Cc3ccccc3)CC2)C1 (stereo not drawn)	·	1.6
CC(C)C(=O)Nc1ccc2nc(SCC(=O)N(C)c3ccccc3)sc2c1	-2.1	0.07
O=S1(=O)C[C@H](NCCc2ccc(F)cc2)[C@@H](S(=O)(=O)c2cccs2)C1	0.27	-0.97
CO/N=C(\C(=O)NC1C(=O)N2C(C(=O)OCOC(=O)C(C)(C)C)=C(/C=C\c3scnc3C)CSC12)c1csc(N)n1 (stereo not drawn)	·	0.85
COCCN1CN=C(NS(=O)(=O)c2ccc(C)cc2)NC1	0.91	1.05
CCCc1noc2c1C(c1cc(Br)ccc1F)C(C#N)=C(N)N2 (stereo not drawn)	-0.74	·
O=C1CN(Cc2ccccc2F)S(=O)(=O)c2ccccc2N1Cc1ccccc1	·	9.39*
O=C(CSc1nc(-c2cccc(Cl)c2)nc2cc(=O)[nH]n12)NCCc1nc2ccccc2[nH]1	·	0.48
CCc1ccc(-c2cc(C)no2)cc1S(=O)(=O)N1CCN(c2ccccn2)CC1	·	2.58
O=c1c2c(-c3ccccc3)csc2ncn1C1CCCC1	0.02	2.16
O=S(=O)(Nc1ccc(Cl)cc1OC(F)(F)F)C(F)(F)F	-0.36	·
Cn1cc(C(=O)NCC2CCCO2)c(=O)c2cc(S(=O)(=O)N3CCOCC3)ccc21 (stereo not drawn)	-0.21	·
COc1ccccc1CNS(=O)(=O)c1ccc2[nH]c3c(c2c1)CCCC3	·	0.71
CCn1c2c(c(=O)[nH]c1=O)C(c1ccc(C(C)C)cc1)C1=C(N2)c2ccccc2C1=O (stereo not drawn)	-2.07	-7.87
O=c1cnnc2sc(SCc3cccc(Cl)c3)nn12	-0.48	0.92
CS(=O)(=O)n1nc(-c2ccco2)nc1NCc1ccc(Cl)cc1	-1.47	-0.32
CCSc1ccsc1C1C(C#N)=C(N)N(c2cccnc2)C2=C1C(=O)CC(c1ccccc1)C2 (stereo not drawn)	2.06	-4.7
CCOC(=O)N1CCC(NC(=O)C(CC)n2nc(C)c3sc4ccccc4c3c2=O)CC1 (stereo not drawn)	-2.85	1.5
COc1ccc(-c2ccc(NS(=O)(=O)c3ccc(C)cc3C)cc2)nn1	·	1.44
COc1cccc(OCc2nc3ccccc3n2CCC(C)C)c1	0.33	1.11
CSc1ncc(C(=O)Nc2ccc(Cl)cc2)c(C(F)(F)F)n1	·	0.09
CCn1c(SCC(=O)Nc2ccc(Br)cc2)nc2c(c1=O)SCC2	-0.27	-0.36
COc1ccc(OC)c(S(=O)(=O)Nc2ccc3c(c2)oc(=O)n3C)c1	·	0.28
COc1ccc(C2NC(C(=O)O)CS2)cc1OC (stereo not drawn)	-1.16	1.1
Nc1ccc(S(=O)(=O)NC(=O)c2ccccc2)cc1	·	1.81
Fc1ccc(C2NCCc3c2[nH]c2ccccc32)cc1 (stereo not drawn)	-1.52&-1.61	2.16
